SARS PLP yeast: blocks SARS-CoV papain-like protease in a yeast assay; 0.19% of 330,000 active; Potency, µM (highest dose often 32.9 µM), for inactives: at the highest dose activity, positive = growth rescue; S. cerevisiae expressing SARS-CoV PLpro, growth rescue; control for the full effect not named in the record; AID 485353; active means well fitted rising curve with a large enough effect; inconclusive means small, poorly fitted or top-dose-only effect; inactive means no such curve, though single readings can be large or run the other way; further: 0% is about no effect; nearly all actives have a fitted effect of over 55% in size; growth read by luminescence after 48 h
MARV entry inh: Marburg virus entry inhibition; Marburg virus pseudotyped entry inhibition, cell reporter; control for the full effect not named in the record; about a third of the inactives were read at about 46 µM; Potency, µM (doses to about 37.8 µM), without a hit: at the highest dose activity change, negative = inhibition, actives largely listed as inhibitors; 1.8% of 300,000 active; AID 540276; active = well fitted inhibition curve with a large enough effect; inconclusive = small, poorly fitted or top-dose-only effect, or effect the other way; inactive = flat fitted curve, though single readings scatter; tested in HEK293 cells; about a fifth of its hits are not listed in these tables; further: on the % scale 0 is the no-effect control and ±100 the full control effect; luciferase read-out
Lassa entry inh: inhibitors of Lassa virus binding or cell entry. Lassa virus pseudotype entry inhibition, cell reporter; control for the full effect not named in the record. Potency, µM (doses to about 37.9 µM), without a hit: at the highest dose activity change, negative = inhibition, most hits filed as inhibitors. 1.2% of 300,000 active; active means well fitted inhibition curve with a large enough effect; inconclusive means small, poorly fitted or top-dose-only effect, or effect the other way; inactive means flat fitted curve, though single readings scatter; tested in HEK293 cells; further: on the % scale 0 is the no-effect control and ±100 the full control effect; nearly all actives have a fitted effect of over 50% in size; luciferase read-out
NS1 function inh: influenza NS1 inhibition; S. cerevisiae slowed by influenza A NS1, growth recovery by OD600; Potency, µM (top dose mostly 46.1 µM), for inactives: at the top dose activity, positive = more growth; 0.4% of 270,000 active; active means well fitted rising curve with a large enough effect; inconclusive means small, poorly fitted or top-dose-only effect; inactive means no such curve, though single readings can be large or run the other way; further: nearly all actives have a fitted effect of over 50% in size
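Growth recovery, yeast-based: influenza A NS1 expressed in S. cerevisiae causes slow growth, and suppressors are detected by OD600. The parent strain without NS1 is used as positive control.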
RE007 growth inh: less growth of the S. pombe RE007 Vpr strain; Potency, µM (highest dose often 92.2 µM), inactives show top-dose activity change, negative = less growth; 0.21% of 360,000 active; S. pombe RE007 Vpr strain, BacTiter-Glo ATP luminescence, 24 h; control for the full effect not named in the record; active = well fitted falling curve with a large enough effect; inconclusive = small, poorly fitted or top-dose-only effect; inactive = no such curve, though single readings can be large or run the other way;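 further: on the % scale 0 is the no-effect control and ±100 the full control effect; nearly all actives have a fitted effect of over 50% in size; the assay follows cell death caused by Vpr and the record does not say whether a fall means rescue or toxicity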
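Fission yeast strain RE007, carrying one chromosomally integrated HIV-1 vpr copy, was seeded at OD 0.01 in PMG+AL medium with 23 nL pinned compound. After 24 h at 30 °C and 99% humidity, viability was read by BacTiter-Glo luminescence.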
2A StopGo: FMDV 2A StopGo reporter, luciferase signal | human cells with a luciferase reporter of 2A StopGo recoding; control for the full effect not named in the record | AID 1159524 | 1.2% of 410,000 active | Potency, µM (top dose mostly 57.9 µM), for inactives: at the highest dose signal change, negative = less light; active = well fitted falling curve with a large enough effect; inconclusive = small, poorly fitted or top-dose-only effect; inactive = no such curve, though single readings can be large or run the other way; tested in HEK293T cells; further: on the % scale 0 is the no-effect control and ±100 the full control effect; nearly all actives have a fitted effect of over 45% in size; luciferase light after 4 h
Cruzain inh noDet: cruzain (T. cruzi) inhibition without detergent; P25779; purified cruzain, Z-FR-AMC fluorescence, no detergent; Potency, µM, inactives show max response, negative = inhibition, hits mostly inhibitors; 2.3% of 200,000 active;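 further: plate controls were enzyme without inhibitor for no effect and buffer without enzyme for full effect; nearly all actives have a fitted effect of over 40% in size; top concentration of the series not given in the record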
Target sequence (P25779 123-467 limits assumed): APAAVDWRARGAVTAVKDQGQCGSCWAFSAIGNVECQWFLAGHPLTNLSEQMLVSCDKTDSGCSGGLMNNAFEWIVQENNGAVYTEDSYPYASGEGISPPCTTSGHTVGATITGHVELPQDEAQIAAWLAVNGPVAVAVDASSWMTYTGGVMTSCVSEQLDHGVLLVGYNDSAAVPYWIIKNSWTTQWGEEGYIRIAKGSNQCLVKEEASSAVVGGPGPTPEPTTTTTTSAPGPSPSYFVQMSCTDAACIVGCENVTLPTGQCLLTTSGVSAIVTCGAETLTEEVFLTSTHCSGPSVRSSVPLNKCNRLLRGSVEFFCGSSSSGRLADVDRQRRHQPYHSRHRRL
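Detergent-free condition (0.00005% Triton X-100) in acetate buffer pH 5.5 with DTT. 1.5 nM enzyme and compound were pre-mixed 15 min, then 2 uM Z-FR-AMC substrate added; reaction progress from fluorescence change between first and third reads (60 s).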
Cruzain inh Det: cruzain (T. cruzi) inhibition with detergent | P25779 | purified cruzain, Z-FR-AMC fluorescence, 0.01% Triton | Potency, µM, without a hit: max response, negative = inhibition, usual class: inhibitors | 0.43% of 200,000 active;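 further: plate controls were neutral wells for no effect and buffer without enzyme for full effect; nearly all actives have a fitted effect of over 40% in size; top concentration of the series not given in the record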
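Compounds were screened in titration against cruzain (1.5 nM) with 0.01% Triton X-100 to counter colloidal aggregation. Activity was the AMC fluorescence increase over 60 s after adding 2 uM Z-FR-AMC at pH 5.5.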
The depositor's hits bear a star; ? = inconclusive; . = not tested or not shown; & = joins results of further samples; [ ] = dose if it differs, or a comment. Unless noted, the call rests on the fitted dose curve; in most records, active means well fitted curve in the direction sought with a large enough effect; inconclusive means small, poorly fitted or top-dose-only effect, or another doubt; inactive means no such curve, though single readings can be large; an effect the other way counts as inactive or inconclusive. Potency means the concentration at half of the fitted maximal effect.

structure | SARS PLP yeast | MARV entry inh | Lassa entry inh | NS1 function inh | RE007 growth inh | 2A StopGo | Cruzain inh noDet | Cruzain inh Det
CN(C)S(=O)(=O)c1ccc(C(=O)N2CC(=O)Nc3ccc(Br)cc3C2c2ccc(F)cc2)cc1 (stereo not given) | . | -26%[46.1 µM] | -12%[46.1 µM] | . | . | 19% | 2% | -5.4%
CCOc1ccccc1N(C)C(=O)CCS(=O)(=O)c1ccc2c(c1)NC(=O)C(C)S2 (stereo not given) | 1% | . | . | 4% | 8% | -30% | . | .
Cc1cccc(-n2c(=O)c3ccccc3n(Cc3ccccc3)c2=O)c1 | . | ? | -4%[46.1 µM] | . | . | -13% | 11% | -6.3%
CCOC(=O)N1CCc2c(sc3c2c(=O)n(Cc2ccccc2)c(=O)n3Cc2cc(C)ccc2C)C1 | . | 1%[46.1 µM] | 7%[46.1 µM] | . | . | -15% | -8% | -0.5%
O=C(CS(=O)CC(=O)Nc1cccc2c1CCCC2)Nc1ccc(F)cc1 (stereo not given) | -2% | 20% | -4% | 3% | 15% | -21% | -1% | 4.9%
O=C1NN(c2ccccc2)C(=O)/C1=C/c1ccc(-c2ccc(Cl)c(C(=O)O)c2)o1 | 1% | -14%[46.1 µM] | -7% | . | 1% | -12% | . | .
COc1cccc(N2CCN(C(=O)c3cc(-c4ccc(F)cc4)[nH]c3C)CC2)c1 | -2% | ? | ? | 1% | -23% | ? | . | .
O=C(Cn1cncn1)NCc1ccccc1Br | 4% | -1% | -21% | -6% | 1% | -4% | -1% | 5.6%

One compound at a time, as listed above. Values in the order: SARS PLP yeast | MARV entry inh | Lassa entry inh | NS1 function inh | RE007 growth inh | 2A StopGo | Cruzain inh noDet | Cruzain inh Det
Listed for Cc1cccc(-n2c(=O)c3ccccc3n(Cc3ccccc3)c2=O)c1 → . | ? | -4%[46.1 µM] | . | . | -13% | 11% | -6.3%
Listed for CCOc1ccccc1N(C)C(=O)CCS(=O)(=O)c1ccc2c(c1)NC(=O)C(C)S2 (stereo not given) → 1% | . | . | 4% | 8% | -30% | . | .

(list continues)
structure | SARS PLP yeast | MARV entry inh | Lassa entry inh | NS1 function inh | RE007 growth inh | 2A StopGo | Cruzain inh noDet | Cruzain inh Det
Cc1ccccc1NC(=O)CN(C)S(=O)(=O)c1cccc2cccnc12 | 3% | . | . | -5% | 7% | -18% | -2% | 4.4%
CCCN(C(=O)C1CSC2(C)CCC(=O)N12)c1c(N)n(Cc2ccccc2)c(=O)[nH]c1=O (stereo not given) | 5% | -11%[46.1 µM] | -4% | . | 5% | ? | . | .
COc1cc(C)ccc1OCCOCCOc1cc(C)c(C)cc1Br | 5% | -1% | 12% | -22% | -6% | 0% | 3% | -9.2%
Cc1noc(C)c1CSc1nc2cc(S(=O)(=O)N3CCOCC3)ccc2o1 | 15% | -2%&5% | 2% | -89% | -4% | ? | 5% | -5.1%
c1cc(CNCCNCc2ccncc2)ccn1 | . | 11% | 16% | . | -3% | -7% | . | .
CCN1CCN(Cc2ccc(NC(=O)c3cc(NC(=O)c4cncc(-c5cccs5)c4)cc(OC)c3)cc2C(F)(F)F)CC1 | -1% | . | . | 17% | -3%&-1% | -21%&-14% | . | .
Cc1ccccc1OCC(=O)Nc1cc(S(=O)(=O)N2CCCCC2)ccc1N1CCN(C)CC1 | 0% | ? | ? | -7% | 1% | -23% | . | .
Cc1ccc(S(=O)(=O)NCc2ccc(C(=O)N3CCc4ccccc4C3)cc2)cc1 | 1% | ? | -25% | -25% | 4% | ? | 3% | -1.2%
Cn1cccc1CC(=O)N/N=C/c1ccc(C(C)(C)C)cc1 | -2% | ? | -24% | -1% | -19% | 31%[activator] | . | .
CCCOc1ccc(CNC(=O)C(NS(=O)(=O)c2cccs2)C(C)C)cc1 (stereo not given) | . | . | -17%[46.1 µM] | . | . | 3% | -13% | -1.1%
CCOC(=O)C1(Cc2cccc(F)c2)CCN(CCCn2cccn2)CC1 | 1% | . | . | 0% | -5% | -30% | . | .
CC(C(=O)NCCC1=CCCCC1)N1C(=O)c2ccccc2C1=O (stereo not given) | -7% | 1% | 1% | 3% | 16% | . | 1% | 1.8%
CC(c1ccccc1)n1cc(C(=O)NCCCn2ccnc2)nn1 (stereo not given) | -17% | -2%[46.1 µM] | -13% | -8% | -5% | -24% | 0% | 1.0%
CC(C)CCNC(=O)CN(Cc1ccc(F)cc1)C(=O)CCC(=O)Nc1ccccn1 | 8% | ? | 2% | 2% | 4% | -14% | . | .
Cc1nc(Sc2ccc(Br)cc2)c(C#N)c(C)c1[N+](=O)[O-] | -1% | ? | ? | -3% | -16% | 20µM* | . | .
COc1cccc(CNCc2ccccn2)c1OC | -3% | -1% | -1% | -4% | 4% | . | -2% | 4.3%

Quoted from the listing:
`CC(c1ccccc1)n1cc(C(=O)NCCCn2ccnc2)nn1` (stereo not given) – NS1 function inh: -8%
`CC(C(=O)NCCC1=CCCCC1)N1C(=O)c2ccccc2C1=O` (stereo not given) – Lassa entry inh: 1%
`Cn1cccc1CC(=O)N/N=C/c1ccc(C(C)(C)C)cc1` – Lassa entry inh: -24%
`Cc1nc(Sc2ccc(Br)cc2)c(C#N)c(C)c1[N+](=O)[O-]` – NS1 function inh: -3%
`CC(C)CCNC(=O)CN(Cc1ccc(F)cc1)C(=O)CCC(=O)Nc1ccccn1` – NS1 function inh: 2%

(cont.)
structure | SARS PLP yeast | MARV entry inh | Lassa entry inh | NS1 function inh | RE007 growth inh | 2A StopGo | Cruzain inh noDet | Cruzain inh Det
CCOC(=O)N1CCN(C(=O)c2ccc3c(c2)N(Cc2ccccc2)CCS3)CC1 | 1% | . | . | -1% | -12% | -14% | . | .
O=C(N/N=C/c1ccc([N+](=O)[O-])cc1)c1cc(C2CC2)nc2ccccc12 | 1% | . | . | 6% | -3% | -23% | . | .
COc1ccc(NC(=O)NNC(=O)C(C)Oc2ccc3ccccc3c2)cc1OC (stereo not given) | 1% | -13% | 3% | 5% | 3% | ? | . | .
Cc1ccc(S(=O)(=O)N2CCOCC2)cc1NC(=O)CSc1nnc(N)s1 | -2% | -29%[46.1 µM] | 4% | 13% | 19% | -11% | . | .
CCn1c(SCC(=O)Nc2nncs2)nnc1-c1ccco1 | 2% | ? | 1%[46.1 µM] | -2% | -10% | 38%[activator] | . | .
CCN1C(=O)c2ccccc2S(=O)(=O)c2ccc(C(=O)N3CCOCC3)cc21 | 3% | . | . | -2% | 0% | -5% | -12% | 0.1%
COc1ccccc1C(=O)Nc1ccnn1C1CCN(C/C=C/c2ccccc2)CC1 | 4% | -20% | 1% | 11% | -11% | -20% | . | .
S=C(Nc1ccc(Cl)cc1)N1CCN(C2CCCCC2)CC1 | 3% | 0% | -7% | -2% | -8% | 20% | -3% | 2.1%
Cc1cccc(NC(=O)CSCC(=O)N(C)CC(=O)Nc2cccc(F)c2)c1 | . | 28% | -16% | . | 1% | -10% | . | .
CC(NC(=O)CCCN1C(=O)c2ccccc2C1=O)c1ccc2c(c1)CCCC2 (stereo not given) | 9% | 0% | -4% | 0% | -3% | -9% | 0% | -4.5%
O=C(CSc1ccccc1)N1CCC(N2CCC(C(=O)N3CCCC3)CC2)CC1 | 1% | 9%[46.1 µM] | 27%[46.1 µM] | 2% | 0% | 5% | . | .
CCN(CC)S(=O)(=O)c1cccc(C(=O)N/N=C(\C)c2ccc(O)cc2O)c1 | 3.5µM* | 7.9µM* | ? | . | -20% | -7% | . | .
COC(=O)C(NS(=O)(=O)c1ccc(NC(C)=O)cc1)C(C)C (stereo not given) | 1% | 6% | -3% | 4% | 4% | . | -3% | -1.5%
Cn1c(SCC(=O)N2CCCC2)nnc1-c1cccs1 | 3% | 10%[46.1 µM] | 15%[46.1 µM] | 3% | 13% | -9% | . | .
CN(c1cccc(NC(=O)CN(c2cccc(Cl)c2)S(=O)(=O)c2ccc(Cl)cc2)c1)S(C)(=O)=O | 5% | ? | -19% | 6% | 3% | 0% | 3% | -0.2%
Cc1cc(C(=O)O)c2ccccc2n1 | -9% | 5% | 4% | 0% | 2% | . | -6% | 1.2%
Cc1ccc(C(=O)/C=C/c2c[nH]c3ccccc23)cc1 | -33% | 11% | -5% | 13% | -17% | . | ? | -15%
COc1cccc(CNC(=O)CNS(=O)(=O)c2ccc3nc(C)sc3c2)c1 | . | -4%[46.1 µM] | ? | . | . | -8% | 7% | -2.0%
NNc1nccc(Nc2ccccc2C(=O)O)n1 | -9% | 17% | -2% | 9% | -10% | -18% | -7% | -0.2%
Cn1c(C(=O)O)c(C=O)c2ccccc21 | -1% | 26%[46.1 µM] | 1%[46.1 µM] | . | -3% | 16% | . | .
COc1ccc(N2CCN(C(=O)c3ccc(Br)o3)CC2)cc1 | -7% | 17% | 15% | -27% | -18% | -6% | . | .
O=C(NCC12CC3CC(CC(C3)C1)C2)c1nn2c(c1Cl)NC(c1ccco1)CC2C(F)(F)F (stereo not given) | 4% | -27%[46.1 µM] | -16% | -4% | 6% | -22% | -7% | -7.0%
O=C(/C=C/c1ccc([N+](=O)[O-])cc1)Oc1ccc(/C=N/NC(=O)c2ccncc2)cc1 | 2% | . | . | 20% | 4% | -16% | . | .
Cc1cccn2c(=O)c3cc(C#N)c(=NC(=O)c4ccco4)n(Cc4ccco4)c3nc12 | 0% | -2%[46.1 µM] | -6%[46.1 µM] | 8% | -1% | -20% | . | .
COCCN1CC(C(=O)NCc2ccccc2-n2ccnc2C)CCC1=O (stereo not given) | -4% | -4% | 28% | -2% | -19% | -19% | . | .
COc1ccc(-n2c(SC(C)C(=O)N3CCOCC3)nc3ccccc3c2=O)cc1 (stereo not given) | 0% | 18% | 16% | 7% | 11% | -1% | . | .
CC(=O)Nc1c(C(=O)O)oc2ccccc12 | 1% | 15% | -5% | -1% | -3% | 50%[activator] | -3% | 2.8%
Cc1ccc(NC(=O)CN2CCN(S(=O)(=O)c3ccc(C(C)C)cc3)CC2)cc1F | . | . | -24%[46.1 µM] | . | . | 0% | ? | -10%
NC(=O)Nc1ccccc1C(=O)NCCc1ccccc1 | 4% | 11% | -1% | 13% | 0% | 23% | 1% | 1.3%

Screening data deposited in PubChem BioAssay by National Center for Advancing Translational Sciences (NCATS).
